NS1 inh = blocks influenza NS1 protein function. S. cerevisiae slowed by influenza A NS1, growth recovery by OD600. Potency, µM (series often up to 46.1 µM), for the others: at the highest dose activity, positive = more growth. 270,000 compounds, 0.4% hits. AID 2326; active means well fitted rising curve with a large enough effect; inconclusive means small, poorly fitted or top-dose-only effect; inactive means no such curve, though single readings can be large or run the other way; further: nearly all actives have a fitted effect of over 50% in size
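Recovery from NS1-induced slow growth read by OD600 in budding yeast switched to galactose assay medium (pH 6.0, -URA) at 1:100 dilution. Compound 23 nl per well; the matching strain lacking NS1 serves as control.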
SARS PLP yeast = blocks SARS-CoV papain-like protease in a yeast assay; S. cerevisiae expressing SARS-CoV PLpro, growth rescue; control for the full effect not named in the record; Potency, µM (titrated, usually from 32.9 µM), for inactives: at the top dose activity, positive = growth rescue; 330,000 compounds, 0.19% hits; active means well fitted rising curve with a large enough effect; inconclusive means small, poorly fitted or top-dose-only effect; inactive means no such curve, though single readings can be large or run the other way; further: 0% is about no effect; nearly all actives have a fitted effect of over 55% in size; growth read by luminescence after 48 h
Marburg entry inh = Marburg virus entry inhibition; Marburg virus pseudotyped entry inhibition, cell reporter; control for the full effect not named in the record; about a third of the inactives were read at about 46 µM; Potency, µM (highest dose often 37.8 µM), without a hit: at the highest dose activity change, negative = inhibition, usual class: inhibitors; 300,000 compounds, 1.8% hits; AID 540276; active = well fitted inhibition curve with a large enough effect; inconclusive = small, poorly fitted or top-dose-only effect, or effect the other way; inactive = flat fitted curve, though single readings scatter; tested in HEK293 cells; about a fifth of its hits are not listed in these tables; further: on the % scale 0 is the no-effect control and ±100 the full control effect; luciferase read-out
Cruzain inh noDet = blocks cruzain activity in detergent-free assay; P25779; purified cruzain, Z-FR-AMC fluorescence, no detergent; Potency, µM, for inactives: max response, negative = inhibition, most hits filed as inhibitors; 200,000 compounds, 2.3% hits;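 further: plate controls were enzyme without inhibitor for no effect and buffer without enzyme for full effect; nearly all actives have a fitted effect of over 40% in size; top concentration of the series not given in the record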
Target sequence (P25779 123-467 limits assumed): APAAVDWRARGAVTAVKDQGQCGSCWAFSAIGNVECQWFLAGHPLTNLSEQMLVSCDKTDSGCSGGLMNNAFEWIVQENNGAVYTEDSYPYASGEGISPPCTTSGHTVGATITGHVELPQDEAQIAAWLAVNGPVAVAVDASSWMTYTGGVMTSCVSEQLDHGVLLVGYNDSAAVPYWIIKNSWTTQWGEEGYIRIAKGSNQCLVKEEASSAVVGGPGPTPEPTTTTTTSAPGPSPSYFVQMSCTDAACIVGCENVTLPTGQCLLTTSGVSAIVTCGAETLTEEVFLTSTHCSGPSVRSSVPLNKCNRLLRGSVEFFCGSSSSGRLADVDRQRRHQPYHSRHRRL
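Detergent-free condition (0.00005% Triton X-100) in acetate buffer pH 5.5 with DTT. 1.5 nM enzyme and compound were pre-mixed 15 min, then 2 uM Z-FR-AMC substrate added; reaction progress from fluorescence change between first and third reads (60 s).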
2A StopGo = lowers the luciferase signal of an FMDV 2A StopGo reporter | human cells with a luciferase reporter of 2A StopGo recoding; control for the full effect not named in the record | Potency, µM (series often up to 57.9 µM), for the others: top-dose signal change, negative = less light | 410,000 compounds, 1.2% hits; active = well fitted falling curve with a large enough effect; inconclusive = small, poorly fitted or top-dose-only effect; inactive = no such curve, though single readings can be large or run the other way; tested in HEK293T cells; further: on the % scale 0 is the no-effect control and ±100 the full control effect; nearly all actives have a fitted effect of over 45% in size; luciferase light after 4 h
RE007 growth inh = less growth of the S. pombe RE007 Vpr strain | S. pombe RE007 Vpr strain, BacTiter-Glo ATP luminescence, 24 h; control for the full effect not named in the record | 360,000 compounds, 0.21% hits | AID 651644 | Potency, µM (series often up to 92.2 µM), without a hit: at the highest dose activity change, negative = less growth; active = well fitted falling curve with a large enough effect; inconclusive = small, poorly fitted or top-dose-only effect; inactive = no such curve, though single readings can be large or run the other way;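 further: on the % scale 0 is the no-effect control and ±100 the full control effect; nearly all actives have a fitted effect of over 50% in size; the assay follows cell death caused by Vpr and the record does not say whether a fall means rescue or toxicity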
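Fission yeast RE007 carrying one integrated HIV-1 vpr copy, seeded at OD 0.01 in PMG+AL medium with 23 nL pinned compound. Grown 24 h at 30 degrees; viability read by BacTiter-Glo luminescence after 5 min.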
LASV entry inh = inhibitors of Lassa virus binding or cell entry | 300,000 compounds, 1.2% hits | AID 540256 | Potency, µM (top dose mostly 37.9 µM), inactives show at the top dose activity change, negative = inhibition, usual class: inhibitors | Lassa virus pseudotype entry inhibition, cell reporter; control for the full effect not named in the record; active means well fitted inhibition curve with a large enough effect; inconclusive means small, poorly fitted or top-dose-only effect, or effect the other way; inactive means flat fitted curve, though single readings scatter; tested in HEK293 cells; further: on the % scale 0 is the no-effect control and ±100 the full control effect; nearly all actives have a fitted effect of over 50% in size; luciferase read-out
Cruzain inh Det = inhibitors of Trypanosoma cruzi cruzain with detergent | P25779 | AID 1478 | 200,000 compounds, 0.43% hits | Potency, µM, for inactives: max response, negative = inhibition, usual class: inhibitors | purified cruzain, Z-FR-AMC fluorescence, 0.01% Triton;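 further: plate controls were neutral wells for no effect and buffer without enzyme for full effect; nearly all actives have a fitted effect of over 40% in size; top concentration of the series not given in the record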
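Detergent-containing arm of a paired screen for aggregation-based inhibition: 0.01% Triton X-100 present. Cruzain at 1.5 nM cleaved 2 uM Z-FR-AMC at pH 5.5 with 5 mM DTT; AMC fluorescence gain over 60 s measured activity.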
The depositor's hits bear a star; ? = inconclusive; / = no result given; & = joins results of further samples; [ ] = another dose, or the depositor's remark. Unless noted, the call rests on the fitted dose curve; in most records, active means well fitted curve in the direction sought with a large enough effect; inconclusive means small, poorly fitted or top-dose-only effect, or another doubt; inactive means no such curve, though single readings can be large; an effect the other way counts as inactive or inconclusive. Potency means the concentration at half of the fitted maximal effect.

SMILES	NS1 inh	SARS PLP yeast	Marburg entry inh	Cruzain inh noDet	2A StopGo	RE007 growth inh	LASV entry inh	Cruzain inh Det
Cn1c(=O)c2c3c(sc2n2c(SCc4ccccc4)nnc12)CCCC3	6%	-2%	18%&18%	-3%	/	/	2%	-1.1%
CCOC(=O)C1CCCN(C(=O)c2ccccc2Oc2ccccc2)C1 (stereo not given)	-7%	-2%	?	6%	-18%	27%	0%	2.3%
COc1ccc(-c2ccnc3nc(-n4cccc4)nn23)cc1	?	11%	-2%	7%	0%	-12%	57%[14.3 µM]	-0.6%
CCCCN1C(=O)C(=O)N(CC(=O)Nc2cc(OCC)c(N3CCOCC3)cc2OCC)C1=O	/	1%	?	/	-7%	-1%	13%	/
COCCN(CCOC)C(=S)Nc1ccccc1Cl	/	0%	0%[46.1 µM]	/	-11%	4%	-7%	/
CNc1nnc(SCC(=O)c2c(N)n(C3CC3)c(=O)[nH]c2=O)s1	/	5%	1%[46.1 µM]	/	-15%	-21%	10%	/
CCOC(=O)c1ccc(NS(=O)(=O)c2cc3c(cc2C)NC(=O)CO3)cc1	1%	?	/	/	31%[activator]	5%	/	/
CCOC(=O)c1ccc(NC(=S)NCCc2ccccc2)cc1	-157%	-13%	-2%	-1%	-15%	7%	?	-11%
CC(CNC(=O)CCn1ccc2cc(S(=O)(=O)N3CCCC3)ccc21)c1ccccc1 (stereo not given)	2%	-4%	-6%[46.1 µM]	/	0%	-3%	?	/
O=C(NCCn1cccn1)c1ccc(OC2CCN(C(=O)C3CC3)CC2)cc1	0%	-1%	/	/	-2%	14%	/	/
CN1CCN(C(=O)C2=C[C@H](C3CCCCC3)C[C@H](OCc3ccc(CO)cc3)O2)CC1	1%	0%	/	/	-6%	-5%	/	/
CC(=O)Nc1ccc(S(=O)(=O)NNC(=O)COc2ccc(Cl)cc2Cl)cc1	5%	2%	0%[46.1 µM]	/	5%	4%	2%	/
O=[N+]([O-])c1ccccc1/C=N/OCc1ccccc1	-23%	-4%	?	/	69%[activator]	-13%	?	/
COc1ccc(NC(=O)c2cccnc2C(=O)O)c(OC)c1	-2%	0%[6.58 µM]	5%	-6%	16%	4%	-15%	0.1%
Cc1ccc(C)n1-c1ccc(C(=O)NN)s1	/	-1%	-23%[46.1 µM]	/	2%	-1%	17%	/
O=c1c2ccccc2c(-c2ccc(Cl)cc2)nn1-c1ccccc1	6%	-7%	-2%	11%	-28%	12%	-2%	-6.4%
Cc1ccc(-n2c(O)c(C=Nc3ccc4c(c3)OCO4)c3ccccc3c2=O)cc1C	5%	-16%	-12%	10µM*	-1%	-6%	-5%	-1.1%
Cc1oc2c(c1C(=O)NCc1cccc(Br)c1)C1=NCCN1C=N2	/	/	/	1%	-16%	/	13%[46.1 µM]	1.6%
CCOC(CNC(=O)c1cccc([N+](=O)[O-])c1)OCC	-2%	0%	/	/	19%	14%	/	/
COc1ccccc1NS(=O)(=O)c1ccc(C(=O)NCc2ccc(S(N)(=O)=O)cc2)cc1	/	9%	0%[46.1 µM]	/	-13%	-1%	-3%[46.1 µM]	/
CCCCOC(=O)c1ccc(NS(=O)(=O)c2c(C)nc3scc(C)n3c2=O)cc1	/	/	?	19%	-25%	/	?	-11%
Nc1ccccc1C(=O)NCc1ccccc1	-1%	0%	-14%	-8%	-6%	-17%	-1%	2.2%
O=C(CNC(=O)c1ccco1)OCC(=O)c1ccc([N+](=O)[O-])cc1	1%	0%	4%[46.1 µM]	/	-1%	4%	-17%	/
CCOC(=O)c1c(-c2ccccc2)csc1NC(=O)c1ccc(N2C(=O)CCC2=O)cc1	16%	10%	9%	?	13%	-4%	2%	-5.5%
O=C(CN1C(=O)c2cccc3cccc(c23)C1=O)N1CCOCC1	/	2%	4%[46.1 µM]	/	12%	-3%	18%	/

Next part.
SMILES	NS1 inh	SARS PLP yeast	Marburg entry inh	Cruzain inh noDet	2A StopGo	RE007 growth inh	LASV entry inh	Cruzain inh Det
O=C(COc1ccc(Cl)cc1)Nc1nc(-c2ccc(S(=O)(=O)N3CCOCC3)cc2)cs1	24%	3%	?	?	?	-5%	?	-1.7%
Cc1c(N=C2N=C(NC(=O)Nc3ccc(Cl)cc3)c3ccccc32)c(=O)n(-c2ccccc2)n1C	0%	-7%	?	/	-6%	-12%	0%	/
O=S(=O)(CCc1nnc(-c2ccccc2)o1)c1ccc2ccccc2c1	-3%	6%	-5%	10%	9%	11%	4%	-0.2%
COc1cccc2[nH]c(C(=O)NCc3ccc4c(c3)CCN4C(=O)c3ccc(F)cc3)cc12	/	/	/	?	-28%	/	?	-3.3%
O=C(CSc1nnc(COc2ccccc2)o1)Nc1ccc(F)cc1	-13%	0%	4%[46.1 µM]	/	4%	-10%	/	/
CCC(CC)C(=O)c1c[nH]c(C(=O)NCCOC)c1	3%	11%	-7%[46.1 µM]	/	3%	-12%	1%	/
COc1ccc2nc(NC(=O)c3ccccc3C(=O)O)sc2c1	-1%	-1%	/	/	3%	3%	/	/
Cc1nc2ccc(NC(=O)c3ccc(Cl)nc3)cc2s1	-6%	2%	/	/	4%	-10%	/	/
CN(C(=O)c1c(Br)cnn1C)C12CC3CC(CC(C3)C1)C2	-7%	9%	18%	3%	/	/	-10%	-2.5%
CCCOC(=O)COc1cc(C)cc2oc(=O)c3c(c12)CCC3	-2%	0%	-3%	5%	-22%	14%	0%	-9.1%
COc1ccccc1/C=C/C(C)=O	-11%	-26%	?	-10%	?	-4%	?	-7.1%
S=C1NC2=C(C(c3ccc(Br)cc3)N1)N1CCC2CC1 (stereo not given)	-16%	3%	-1%	-1%	-28%	18%	21%	3.8%
O=C(CCSc1ccccc1)NC(=O)COC(=O)C1CCCCC1	/	0%	-17%[46.1 µM]	/	-4%	-20%	16%[46.1 µM]	/
CC(=O)Nc1cccc(NC(=O)CCNC(=O)c2ccc(Cl)cc2)c1	10%	1%	/	/	-12%	24%	/	/
O=C1c2ccccc2NC(c2cccc(O)c2)N1c1ccccc1 (stereo not given)	-3%	1%	-10%[46.1 µM]	/	-21%	5%	21%	/
C(=NCCCN1CCOCC1)c1ccc2c(c1)OCO2	7%	4%	-6%	-15%	-3%	-2%	7%	1.9%
COc1cccc(C(C(=O)NC2CCCCC2)N(Cc2ccco2)C(=O)c2ccccn2)c1 (stereo not given)	1%	-2%	-3%[46.1 µM]	/	36%[activator]	8%	/	/
Cc1cc(C(=O)Nc2c(C)n(C)n(-c3ccccc3)c2=O)c(C)o1	4%	2%	17%	-2%	15%	22%	1%	-0.4%
CCO[C@H]1OC(C(=O)N2CCN(Cc3ccc4c(c3)OCO4)CC2)=C[C@@H](C2CC2)[C@@H]1CCCO	-4%	1%	/	/	-11%	0%	/	/
CSc1nnc(-c2ccc(Br)s2)n1C	-5%	-4%	17%	/	35%[activator]	-5%	16%	/
Cc1cc2oc(=O)cc(CN3CCOCC3)c2cc1C(C)C	17%	17%	-9%[46.1 µM]	/	?	-7%	-23%	/
CCN(CC)S(=O)(=O)c1ccc(NC(=O)Cn2cnc3ccccc3c2=O)cc1	-15%	3%	21%[46.1 µM]	16%	3%	4%	0%	-2.6%
COCCn1c(N)c(N(Cc2ccccc2)C(=O)COc2ccc(F)cc2Cl)c(=O)[nH]c1=O	/	-1%	-2%	/	-1%	0%	-1%	/
CN(c1ccc(C(=O)NCc2cccnc2)cc1)S(C)(=O)=O	?	-11%	13%	-3%	?	15%	-3%	0.6%
COCCn1c(C)cc(C(=O)CSc2nncn2-c2ccccc2)c1C	4%	2%	15%	-2%	27%	-19%	-18%	-0.1%

Next compounds follow.
SMILES	NS1 inh	SARS PLP yeast	Marburg entry inh	Cruzain inh noDet	2A StopGo	RE007 growth inh	LASV entry inh	Cruzain inh Det
CCOC(=O)c1cnc2c(cnn2C)c1NCCC#N	2%	0%	5%	6%	-3%	33%	2%	2.4%
COc1ccc(NC(=O)CCN2CCN(C/C=C/c3ccccc3)CC2)cc1	-5%	-1%	/	/	-20%	2%	/	/
O=[N+]([O-])c1ccc(C2=NN(CCO)C(=Nc3ccc(OC(F)(F)F)cc3)SC2)cc1	-31%	-5%	?	/	-10%	-20%	?	/
CN(CC(=O)Nc1cccc(F)c1)C(=O)c1ccccc1CCc1ccccc1	/	-2%	?	/	5%	10%	?	/
Cc1ccc(NS(=O)(=O)c2ccc(C(=O)N3CC(C)OC(C)C3)cc2)cc1 (stereo not given)	-22%	4%	1%[46.1 µM]	/	-2%	-6%	-8%[46.1 µM]	/
CCc1nnc(NC(=O)c2cc(-c3ccccc3)nn2-c2ccccc2)s1	9%	-1%	14%	3%	-19%	-15%	6%	-2.6%
CN(C(=O)COc1coc(CN2CCN(c3ccccc3)CC2)cc1=O)c1ccccc1	/	0%	?	/	0%	-10%	3%	/
Cc1cc2nc(C3CCN(C(=S)NCCCOC(C)C)CC3)[nH]c2cc1C	0%	1%	/	/	-7%	-14%	/	/
Cc1nn(C)c(C)c1CNC(=O)c1cc2n(n1)C(C(F)(F)F)CC(c1cccs1)N2 (stereo not given)	-10%	2%	-29%	?	/	6%	-14%	-3.0%
O=C1Nc2ccc(S(=O)(=O)NCc3ccccn3)c3cccc1c23	-1%	4%	2%	-2%	37%[activator]	-5%	18%	1.2%
COC(=O)CC1C(=O)NCCN1C(=S)NC(=O)c1sc2ccccc2c1Cl (stereo not given)	-1%	1%	/	/	9%	-6%	/	/
COc1ccc(CNC(=O)COc2ccc(C)nc2[N+](=O)[O-])cc1	/	0%	4%[46.1 µM]	/	-6%	-3%	?	/
COc1cccc(N2CCN(C(=O)c3cc(C)oc3C)CC2)c1	/	-13%	-36%	/	-29%	?	?	/
Cn1c(C(=O)NCCCN2CCCC2=O)cc2c(=O)n(C)c3ccccc3c21	-13%	-1%	/	1%	-19%	5%	/	5.7%
COc1cccc(C2=NCCc3cc4c(cc32)OCO4)c1OC	-6%	-18%	?	-7%	-14%	-8%	8%	-5.3%
CCN(CC(=O)NCc1ccc(F)cc1)CC(=O)NC1CCCC1	13%	1%	13%[46.1 µM]	/	11%	3%	20%	/
